Screening data as filed in PubChem.
Autofluor counter – counter-screen for toxin protease inhibitors: compound fluorescence; compound autofluorescence counterscreen, microsphere flow cytometry; stronger effect = higher value; fluorescence intensity (test concentration not listed); 3.1% of 360,000 active; AID 624483;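 active means at least 3 SD above the mean of all compounds, about 16000 in these data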;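 further: 100 nL of 1 mM stock went into each well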
An asterisk follows results filed as active.

The opening 11 compounds (preview)
Results for CCOC(=O)N1Cc2cc3ccccc3nc2C1 ?
Autofluor counter: 3431

What do the screens show for `COc1ccc(C(C)(NC(C)=O)c2nc(-c3cccc(C(F)(F)F)c3)cs2)cc1` (stereo unspecified)?
Autofluor counter: 3789

How did CCCCn1nnnc1C1(C)CCC(=O)N1c1ccc(N2CCOCC2)cc1 (stereo unspecified) do in these assays?
Autofluor counter: 3984

What do the screens show for `Cc1noc(C)c1NC(=O)N(C)C[C@@H]1OCc2cn(nn2)CCCC(=O)N([C@H](C)CO)C[C@H]1C`?
Autofluor counter: 3416

Results for CCc1nc2c(OCCOc3ccc(F)cc3)cccn2c1N(C=O)Cc1ccc(OC)cc1 ?
Autofluor counter: 3980

How did COc1ccc(CN2C[C@@H](CO)O[C@@H](n3cnc4c(NCc5ccco5)ncnc43)C2)cc1 do in these assays?
Autofluor counter: 3660

Results for COc1ccc2c(c1)C(CC(C)=O)N(c1ccc(-c3cccnc3)cc1)C(c1ccsc1)=C2 (stereo unspecified) ?
Autofluor counter: 5254

Results for Cc1cccc(OCCC(=O)OCC(=O)N2c3ccccc3NC(=O)C2(C)C)c1 ?
Autofluor counter: 3903

Results for CC1(C(=O)NCc2ccc(Cl)cc2)CCN1C(=O)Cc1ccc(Cl)cc1Cl (stereo unspecified) ?
Autofluor counter: 2924

Results for CCCNC(=O)C1(C)CCCN(C(=O)c2ccccc2OC(F)(F)F)C1 (stereo unspecified) ?
Autofluor counter: 3725

What do the screens show for `Cc1ccc2ccccc2c1C(O)c1ncc(-c2ccc(Cl)cc2)[nH]1` (stereo unspecified)?
Autofluor counter: 2940

All compounds of this part, previewed entries included:
Results for CCOC(=O)N1Cc2cc3ccccc3nc2C1 ?
Autofluor counter: 3431

What do the screens show for `COc1ccc(C(C)(NC(C)=O)c2nc(-c3cccc(C(F)(F)F)c3)cs2)cc1` (stereo unspecified)?
Autofluor counter: 3789

How did CCCCn1nnnc1C1(C)CCC(=O)N1c1ccc(N2CCOCC2)cc1 (stereo unspecified) do in these assays?
Autofluor counter: 3984

What do the screens show for `Cc1noc(C)c1NC(=O)N(C)C[C@@H]1OCc2cn(nn2)CCCC(=O)N([C@H](C)CO)C[C@H]1C`?
Autofluor counter: 3416

Results for CCc1nc2c(OCCOc3ccc(F)cc3)cccn2c1N(C=O)Cc1ccc(OC)cc1 ?
Autofluor counter: 3980

How did COc1ccc(CN2C[C@@H](CO)O[C@@H](n3cnc4c(NCc5ccco5)ncnc43)C2)cc1 do in these assays?
Autofluor counter: 3660

Results for COc1ccc2c(c1)C(CC(C)=O)N(c1ccc(-c3cccnc3)cc1)C(c1ccsc1)=C2 (stereo unspecified) ?
Autofluor counter: 5254

Results for Cc1cccc(OCCC(=O)OCC(=O)N2c3ccccc3NC(=O)C2(C)C)c1 ?
Autofluor counter: 3903

Results for CC1(C(=O)NCc2ccc(Cl)cc2)CCN1C(=O)Cc1ccc(Cl)cc1Cl (stereo unspecified) ?
Autofluor counter: 2924

Results for CCCNC(=O)C1(C)CCCN(C(=O)c2ccccc2OC(F)(F)F)C1 (stereo unspecified) ?
Autofluor counter: 3725

What do the screens show for `Cc1ccc2ccccc2c1C(O)c1ncc(-c2ccc(Cl)cc2)[nH]1` (stereo unspecified)?
Autofluor counter: 2940

Results for Cc1ccc(S(=O)(=O)N2C[C@H]3[C@H]4C(=O)N(c5ccccc5)C(=O)[C@H]4C[C@H](OC(=O)NCc4ccco4)[C@@]3(O)C2)cc1 ?
Autofluor counter: 5118

How did CC(C)Oc1ccc(F)cc1-c1cc(C(=O)Nc2ccc(C(C)(C)C)cc2)[nH]n1 do in these assays?
Autofluor counter: 2972

How did CC(=O)Nc1ccc(C(=O)N2CCCCC2c2cc(C(=O)Nc3cccc(C#N)c3)no2)cc1 (stereo unspecified) do in these assays?
Autofluor counter: 3540

Results for O=C(c1cc(C2CC2)nn1-c1ccccc1)N1CCN(S(=O)(=O)c2ccccc2F)CC1 ?
Autofluor counter: 2756

How did CCOC(=O)[C@@H]1[C@H]2COc3ccccc3[C@@H]2N2C(=O)N(c3ccc(Br)cc3)C(=O)[C@@]12C do in these assays?
Autofluor counter: 6144

How did O=C(COC(=O)c1c(F)cccc1F)NC(=O)NCc1ccccc1 do in these assays?
Autofluor counter: 3693

Results for C[C@]12CCC3C(CC[C@H]4C[C@@H](O)CC[C@]34C)C1C[C@@H](Br)[C@H]2O (stereo partly specified) ?
Autofluor counter: 3482

What do the screens show for `COc1ccccc1CNC(=O)COc1cc(O)c2c(c1)OC(C)(C)CC2=O`?
Autofluor counter: 4088

Results for O=C1O[C@@H](c2ccccc2)C[C@@H](O)C(=O)CCCCc2ccccc21 ?
Autofluor counter: 6046

What do the screens show for `C[C@@H]1CN([C@H](C)CO)S(=O)(=O)c2ccc(Br)cc2O[C@H]1CN(C)C(=O)Nc1ccccc1`?
Autofluor counter: 3566

What do the screens show for `O=C(NCc1ccc(F)cc1)c1[nH]c(C(F)(F)F)nc1-c1ccccc1`?
Autofluor counter: 5690

What do the screens show for `O=S1(=O)N[C@@H](Cc2ccccc2)COc2cc(N3CCC[C@@H]3CO)ccc21`?
Autofluor counter: 5387

What do the screens show for `O=S(=O)(Nc1ccc(C(O)(C(F)(F)F)C(F)(F)F)cc1)c1cccc2ccccc12`?
Autofluor counter: 3694

What do the screens show for `CCC(CC)C(=O)N(C)c1c(C)nc2c(OCc3cc(Cl)cc(Cl)c3)cccn12`?
Autofluor counter: 3680

Results for COc1ccc(C2CC(c3cccs3)=NN2C(=O)CCCC(=O)O)cc1OC (stereo unspecified) ?
Autofluor counter: 3822

How did CC(C)(C)c1ccc(C(O)c2ncc(-c3ccccc3Cl)[nH]2)cc1 (stereo unspecified) do in these assays?
Autofluor counter: 3715

Results for COc1cc(/C=N/N2CCN(Cc3ccccc3)CC2)cc(OC)c1OC ?
Autofluor counter: 2982

What do the screens show for `CCc1nc2ccc(C(=O)Nc3cc(-c4ccccc4)ccc3OC)cn2c1N(CC)CC(=O)N(C)C`?
Autofluor counter: 3600

What do the screens show for `CN(c1cccc(F)c1)c1cc2c(c3c1ccn3C)C1CCC2O1` (stereo unspecified)?
Autofluor counter: 7513

Results for COc1ccc(NC(=O)N(C)C[C@H]2Oc3cc(Br)ccc3S(=O)(=O)N([C@H](C)CO)C[C@@H]2C)cc1 ?
Autofluor counter: 3607

How did N#CCC(=O)Nc1ccc(C(=O)Nc2cccc(S(=O)(=O)N3CCCC3)c2)cc1 do in these assays?
Autofluor counter: 3671

What do the screens show for `Clc1ccccc1NN=Cc1ccccn1`?
Autofluor counter: 3847

Results for CCCNC(=O)c1cc(C2CCCCN2C(=O)c2ccc(NC(C)=O)cc2)on1 (stereo unspecified) ?
Autofluor counter: 3686

Results for Cc1ccc(Cn2cc(CN(C)C3CN(Cc4cn(Cc5ccc(C)cc5)nn4)S(=O)(=O)C3)nn2)cc1 (stereo unspecified) ?
Autofluor counter: 4423

How did COc1ccc(CN(C)C(=O)[C@H]2O[C@@H](n3ccc(=O)[nH]c3=O)[C@H](O)[C@@H]2O)cc1OC do in these assays?
Autofluor counter: 4351

How did CCOC(=O)[C@]12CCCC=C1N(Cc1ccco1)C(=O)[C@H](CC(=O)NCC13CC4CC(CC(C4)C1)C3)C2 do in these assays?
Autofluor counter: 6681

Results for CCCCNC(=O)C(NC(=O)c1cccnc1)C(=O)c1ccccc1 (stereo unspecified) ?
Autofluor counter: 5750

What do the screens show for `CN(C1=NS(=O)(=O)N=C(N(C)c2ccccc2)O1)c1ccccc1`?
Autofluor counter: 2863

What do the screens show for `Cc1ccc(F)cc1C(=O)N1CCCCC1c1cc(C(=O)NCc2ccccc2)no1` (stereo unspecified)?
Autofluor counter: 4291

How did CN(C)CCN(Cc1ccccc1)C(=O)c1[nH]c(C(F)(F)F)nc1-c1ccccc1 do in these assays?
Autofluor counter: 6032

Results for O=C(NCc1ccncc1)c1csc([C@@H]2O[C@H](CO)[C@@H](O)[C@H]2O)n1 ?
Autofluor counter: 3108

Results for CC1C(=O)N(Cc2cn(Cc3ccco3)nn2)CCS(=O)(=O)N1Cc1ccc(-c2ccc(Cl)c(Cl)c2)cc1 (stereo unspecified) ?
Autofluor counter: 3097

How did O=C(NN=Cc1c[nH]c2ccccc12)NN=Cc1c[nH]c2ccccc12 do in these assays?
Autofluor counter: 3197

What do the screens show for `CNC(=O)C1Cc2c(-c3ccc4c(c3)OCO4)ccnc2O1` (stereo unspecified)?
Autofluor counter: 3029

Results for COc1ccc(NC(=O)C[C@H]2C(=O)N(Cc3ccccc3)C[C@@H]2CSC)cc1 ?
Autofluor counter: 3779

Results for C=C1C(=O)[C@]23C[C@H]1CCC2[C@@]1(C)C(C[C@@H]3O)[C@](C)(C(=O)O)CC[C@@H]1O (stereo partly specified) ?
Autofluor counter: 4258

How did COCCNC(=O)C1(C)CCCN(C(=O)c2c(F)ccc(C)c2F)C1 (stereo unspecified) do in these assays?
Autofluor counter: 2855

What do the screens show for `C[C@@H]1CCCCO[C@@H](CN(C)S(=O)(=O)c2cn(C)cn2)[C@@H](C)CN([C@H](C)CO)C(=O)c2cc(N(C)C)ccc2O1`?
Autofluor counter: 3645

What do the screens show for `C[C@H]1CN([C@@H](C)CO)C(=O)c2cc(Br)cnc2O[C@H]1CN(C)Cc1ccccc1C(=O)O`?
Autofluor counter: 3417

What do the screens show for `COc1cccc(CN2CCC(C(=O)NC(C)c3cccc4ccccc34)CC2)c1` (stereo unspecified)?
Autofluor counter: 4168

What do the screens show for `CSc1ncnc2c1ncn2CCCNC1CCN(Cc2ccccc2)CC1`?
Autofluor counter: 3736

How did CCOC(=O)C1(C)CCCN(C(=O)c2ccc(F)cc2Cl)C1 (stereo unspecified) do in these assays?
Autofluor counter: 3480

How did O=C(NCc1ccncc1)[C@@H]1CCCN1C(=O)[C@H]1CCCN1C(=O)c1cccs1 do in these assays?
Autofluor counter: 6216

How did COc1cccc(C(C)(O)c2nc(-c3ccccc3OC)cs2)c1 (stereo unspecified) do in these assays?
Autofluor counter: 3748

How did CC1CCCC(NC(=O)CCCCCn2c(=S)[nH]c3ccsc3c2=O)C1C (stereo unspecified) do in these assays?
Autofluor counter: 4056

What do the screens show for `COc1cc(C=C(C#N)C(=O)c2ccccc2)cc(OC)c1OC`?
Autofluor counter: 5904

Results for COc1ccc(-c2nc(S(=O)(=O)c3ccccc3)c(N3CCCC3)o2)cc1 ?
Autofluor counter: 3994

What do the screens show for `CCc1ccc(C(O)c2ncc(-c3cccc(C)c3)[nH]2)cc1` (stereo unspecified)?
Autofluor counter: 4210

How did COC(=O)Cc1ccc(OC2(C)CCN(Cc3ccccc3OC(F)F)C2)cc1 (stereo unspecified) do in these assays?
Autofluor counter: 3179

Results for COc1ccccc1Cc1c(C(C)(C)C)nc2ccc(C)cn12 ?
Autofluor counter: 5966

Results for O=C(c1ccc2c(c1)CCC2)N1CCN(Cc2c(F)cccc2Cl)CC1 ?
Autofluor counter: 3986

Results for Cc1ccc(NC(=O)C2(C)CCN2C(=O)C2(c3ccc(Cl)cc3)CC2)cc1 (stereo unspecified) ?
Autofluor counter: 3700

How did Cc1ccc(S(=O)(=O)N2CCOCC2)cc1NC(=O)COC(=O)COc1ccc(C#N)cc1 do in these assays?
Autofluor counter: 2882

What do the screens show for `Cc1ccccc1Cn1c(C)c(C(=O)NCCC#N)sc1=O`?
Autofluor counter: 5226

Results for C[C@H]1CN([C@@H](C)CO)S(=O)(=O)c2ccc(Br)cc2O[C@H]1CN(C)C(=O)NC1CCCCC1 ?
Autofluor counter: 4126

How did Cc1cn([C@H]2C[C@H](O)[C@@H](CCC(=O)NCc3ccc(N(C)C)cc3)O2)c(=O)[nH]c1=O do in these assays?
Autofluor counter: 3594

What do the screens show for `CCCCNC(=O)C[C@@H]1C[C@@]2(C(=O)OC)CCCCC=C2N(CCC2=CCCCC2)C1=O`?
Autofluor counter: 5746

How did O=C(CCNC(=O)c1ccc([N+](=O)[O-])cc1)Nc1cc(C(F)(F)F)ccc1N1CCOCC1 do in these assays?
Autofluor counter: 3777

Results for Cc1cccc(COC[C@H](Cc2ccccc2)N2CCN(C(=O)c3ccc(Cl)c(Cl)c3)CCC2=O)c1 ?
Autofluor counter: 4313

How did CCCCCCn1c(=O)n2n(c1=O)C[C@]1(OC(=O)NCc3ccccc3F)CN(S(=O)(=O)c3ccc(C)cc3)C[C@]1(O)C2 do in these assays?
Autofluor counter: 3553

Results for NC(Cc1ccccc1)c1csc(Nc2ccccn2)n1 (stereo unspecified) ?
Autofluor counter: 3489

How did CCOC(=O)N(C)c1c(CC)nc2c(OCc3cccc(Cl)c3)cccn12 do in these assays?
Autofluor counter: 3744

How did O=C(OCc1ccccc1)N1CCC2CC1c1cc(N3CCN(S(=O)(=O)c4cc(Cl)cc(Cl)c4)CC3)ccc12 (stereo unspecified) do in these assays?
Autofluor counter: 2967

Results for C[C@@H]1CN([C@H](C)CO)C(=O)CCCn2nncc2CO[C@H]1CN(C)C(=O)C1CC1 ?
Autofluor counter: 2897

Results for O=c1[nH]cc(S(=O)(=O)N2CCN(c3ccccc3F)CC2)c(=O)[nH]1 ?
Autofluor counter: 2764

Results for C=CCCC(=O)N1C[C@H]2CON(C)[C@H]2C[C@H]1c1ccc(-n2ccnc2)cc1 ?
Autofluor counter: 6928

How did Nc1ccn([C@@H]2O[C@H](C(=O)N[C@H](COC=O)Cc3ccccc3)[C@@H](O)[C@H]2O)c(=O)n1 do in these assays?
Autofluor counter: 5703

Results for COc1ccc(CCN2C(=O)COc3ccccc3C2C(=O)NCc2ccccc2)cc1OC (stereo unspecified) ?
Autofluor counter: 5914

How did NC(=S)NN=Cc1cc(-c2cccc(N)c2)ccn1 do in these assays?
Autofluor counter: 3848

How did CCOc1ccc(Cl)cc1-c1cc(C(=O)Nc2ccc(F)cc2)[nH]n1 do in these assays?
Autofluor counter: 2833

Results for Cc1ccc(CN2CCC2(C)C(=O)NC2CCc3ccccc32)cc1 (stereo unspecified) ?
Autofluor counter: 3452

How did CCc1nc2c(OCc3ccc(C(=O)OC)cc3)cccn2c1N(C)C(=O)c1ccc(OC)cc1 do in these assays?
Autofluor counter: 3780

What do the screens show for `CC1(C(=O)NS(=O)(=O)c2ccc(Cl)cc2)CCN1C(=O)C1(c2ccc(Cl)cc2)CCC1` (stereo unspecified)?
Autofluor counter: 3816

Results for CS(=O)(=O)Nc1ccc2c(c1)[C@H]1C[C@H](CC(=O)NCc3ccccc3)O[C@H](CO)[C@H]1O2 ?
Autofluor counter: 3938

A portion of the library; rates above refer to the full screens.
